Bioassay records deposited in PubChem BioAssay by National Center for Advancing Translational Sciences (NCATS).
StopGo FLuc: lowers the firefly signal of an FMDV 2A StopGo reporter | HEK cells with a luciferase reporter of 2A StopGo recoding | Potency, µM (doses to about 57.5 µM), for inactives: at the top dose signal change, negative = less light | 0.23% of 120,000 active | AID 1745856; active = well fitted falling curve with a large enough effect; inconclusive = small, poorly fitted or top-dose-only effect; inactive = no such curve, though single readings can be large or run the other way; note: nearly all actives have a fitted effect of over 60% in size; overnight with compound
StopGo RLuc: FMDV 2A StopGo reporter, Renilla signal; AID 1745857; Potency, µM (top dose mostly 57.5 µM), for the others: at the top dose signal change, negative = less light; 0.32% of 120,000 active; HEK cells with a luciferase reporter of 2A StopGo recoding; active means well fitted falling curve with a large enough effect; inconclusive means small, poorly fitted or top-dose-only effect; inactive means no such curve, though single readings can be large or run the other way; note: nearly all actives have a fitted effect of over 55% in size; overnight with compound
Active calls of the source: *; ? = inconclusive; [ ] = another dose, or the depositor's remark. % is set by controls: 0 for no effect and ±100 for the full control effect; potency is the fitted concentration of half-maximal effect. Only part of the results is shown; count on the stated rates, not on these rows.

Order of results – StopGo FLuc	StopGo RLuc
COc1ccc(CNc2nc(C)nc3sc4c(c23)CCC4)cc1OC
  13%	15%
CCOC(=O)Cn1c(=O)n(C2CCCCC2)c2nc(-c3ccc(Cl)cc3)nc(C(N)=O)c21
  -10%	-9%
CCNC(=S)Nc1ccccc1Cl
  5%	7%
Cn1c(=O)[nH]c(=O)c2c1nc(Nc1cccc(Cl)c1Cl)n2CC(=O)O
  1%	2%
NC(=O)c1nn(CC(O)COc2ccc3ccccc3c2)c(=O)c2ccccc12 (centres undefined)
  -14%	19%
Cc1ccccc1NC1(c2nnnn2-c2ccccc2)CCCCC1
  6%	139%[activator]
Cc1cccc(OCc2ccc(C(N)=O)cc2)c1
  210%[activator]	42%[activator]
CN(CC(=O)Nc1ccc(Cl)c(Cl)c1)C(=O)c1ccc2ccccc2c1
  6%	-11%
CSCCC(NS(=O)(=O)c1ccc2c(c1)oc(=O)n2C)C(=O)NCc1ccc(F)cc1 (centres undefined)
  0%	-10%
Cc1cc(O)c2c(C)c(CC(=O)NCCN3CCOCC3)c(=O)oc2c1
  4%	1%
O=C(N/N=C/c1cc(Br)cs1)c1cccc(Br)c1
  0%	54%[activator]
Cc1ccc(CCC2CCN(C(=O)c3cccc(C#N)c3)CC2)cc1
  6%	48%[activator]
Cc1ccc2c(CC(=O)Nc3c(C(=O)c4ccc(F)cc4)oc4ccccc34)coc2c1
  -4%	-8%
CNC(=O)c1c(NC(=O)c2nn(-c3ccc(Cl)cc3)ccc2=O)sc2c1CCCC2
  17%	1%
CSc1ccc(CCNC(=O)c2cc(C)nc3c2c(C)nn3-c2cccc(F)c2)cc1
  0%	-7%
COc1ccc(C(=O)c2sc(Nc3ccc(C)cc3)nc2N)cc1OC
  0%	100%[activator]
N#Cc1nc(-c2ccc(F)cc2)oc1N1CCN(c2ccccc2)CC1
  -1%	-7%
CCOC(=O)C1CCN(C(c2cccc(F)c2)c2c(O)cc(C)n(CCOC)c2=O)CC1 (centres undefined)
  -10%	-7%
CCCCCc1ccc(-c2ccc(-c3ccc(O)cc3)nc2)cc1
  48%[activator]	-1%
Cc1ccc(CNC(=O)C(=O)NCC(c2cccs2)S(=O)(=O)c2ccccc2)cc1 (centres undefined)
  -17%	-10%
Cc1cccc(Cn2ccn(Cc3ccc(Cl)cc3)c(=O)c2=O)c1
  -14%	-2%
O=C(c1ccc2c(Cl)c3c(nc2c1)CCCC3)N1CCN(c2ccc(Cl)cc2)CC1
  -11%	-5%
CCN(CC)C(CNS(=O)(=O)c1cccc(C#N)c1)c1ccsc1 (centres undefined)
  -7%	14%
Cc1cc(C)c(NC(=O)CSc2nncn2C)c(Cl)c1
  0%	-10%
CCC1(CC)NC(=O)N(CC(=O)Nc2cccc3cccnc23)C1=O
  22%	-4%
CC(=O)c1c(C)n(-c2ccc(C)cc2)c2ccc(OC(=O)COc3ccccc3)cc12
  -9%	-15%
Nc1nc(Cl)nc(Nc2cccc(Cl)c2)c1[N+](=O)[O-]
  0%	24%
CC(Sc1ncc(S(=O)(=O)c2ccc(C(C)C)cc2)c(N)n1)C(=O)Nc1ccccc1 (centres undefined)
  ?	?
CC(=O)NC12CC3CC(C1)CC(C(=O)NC1CCSCC1)(C3)C2
  -7%	5%
CN1CCC(N(C)c2nc(-c3ccc([N+](=O)[O-])cc3)nc3ccccc23)CC1
  0%	-11%

An excerpt from above in order of molar mass, rising.
Order of results – StopGo FLuc	StopGo RLuc
CCCCCc1ccc(-c2ccc(-c3ccc(O)cc3)nc2)cc1
  48%[activator]	-1%
Cc1cccc(Cn2ccn(Cc3ccc(Cl)cc3)c(=O)c2=O)c1
  -14%	-2%
COc1ccc(C(=O)c2sc(Nc3ccc(C)cc3)nc2N)cc1OC
  0%	100%[activator]
CN(CC(=O)Nc1ccc(Cl)c(Cl)c1)C(=O)c1ccc2ccccc2c1
  6%	-11%
CC(=O)c1c(C)n(-c2ccc(C)cc2)c2ccc(OC(=O)COc3ccccc3)cc12
  -9%	-15%

The listing picks up; the 3 compounds before the break are reprinted first.
Order of results – StopGo FLuc	StopGo RLuc
CC(Sc1ncc(S(=O)(=O)c2ccc(C(C)C)cc2)c(N)n1)C(=O)Nc1ccccc1 (centres undefined)
  ?	?
CC(=O)NC12CC3CC(C1)CC(C(=O)NC1CCSCC1)(C3)C2
  -7%	5%
CN1CCC(N(C)c2nc(-c3ccc([N+](=O)[O-])cc3)nc3ccccc23)CC1
  0%	-11%
CCc1ccc(NC(=O)C2CCN(S(=O)(=O)c3c(C)noc3/C=C/c3ccco3)CC2)cc1
  -10%	-8%
CCOC(=O)c1ccc(NC(=O)c2c(-c3c(F)cccc3Cl)noc2C)cc1
  -7%	-14%
CCSc1nc2c(c(=O)[nH]c(=O)n2C)n1CC(O)COc1ccccc1 (centres undefined)
  3%	4%
Cc1ccc(C2=Nc3ccccc3N=C(c3ccc(F)cc3)C2)c(O)c1
  54%[activator]	0%
COc1ccc(-c2nc3ccccc3s2)cc1NC(=O)c1ccc(F)cc1
  12%	-10%
O=C(CSc1nccn1Cc1ccc(F)cc1)NCc1ccccc1
  -2%	3%
CCSc1nc2sc3c(c2c(=O)n1-c1ccc(C)c(Cl)c1)CCN(C(C)=O)C3
  -27%	-14%
CN1C(=O)Cc2cc(S(=O)(=O)N3CCN(c4cccc(C(F)(F)F)c4)CC3)ccc21
  -22%	5%
CCCCC1C(=O)N(c2ccccc2)N(c2ccc(O)cc2)C1=O (centres undefined)
  -5%	?
COc1ccc(OCC(=O)Nc2cc(-c3ccccc3F)nn2-c2ccccc2)cc1
  19%	-9%
COc1ccc(-c2nc(CS(=O)(=O)CC(=O)NCc3ccc(OC(C)C)cc3)c(C)o2)cc1
  0%	1%
CCSc1nc(N2CCCCC2)c2c3c(sc2n1)COC(C)(CC)C3 (centres undefined)
  9%	20%
CCCCOc1ccc(-c2nn(-c3ccccc3)cc2C2NC(=O)NC(C)=C2C(=O)OC)cc1 (centres undefined)
  21%	7%
O=C(COC(=O)C12CC3CC(CC(C3)C1)C2)Nc1ccc(Cl)cc1[N+](=O)[O-]
  -7%	-5%
CC1CCN(Cc2cc(=O)oc3ccc(O)cc23)CC1
  131%[activator]	12%
COc1ccc(OC)c(Nc2nc(NCC(C)O)nc3c2cnn3-c2ccccc2)c1 (centres undefined)
  21%	50%[activator]
CC(C)(C)C(=O)Nc1ccccc1C(=O)OCc1cc(=O)n2ccsc2n1
  -6%	-15%
CCN1C(=O)C(NC(=O)C(=O)NCc2ccco2)c2ccccc21 (centres undefined)
  27%	0%
NC(=O)C1CCCN1S(=O)(=O)c1ccc(Br)s1 (centres undefined)
  -3%	-8%
O=C(/C=C/c1ccccc1)Oc1ccc(Br)cc1
  7%	-3%
CCC(=O)Oc1ccc2c(C)c(Cc3ccccc3)c(=O)oc2c1
  27%	50%[activator]
O=C1CC(c2ccc(F)c(F)c2)c2ncn(-c3ccccc3)c2N1 (centres undefined)
  148%[activator]	24%
Cc1[nH]nc2c1C(c1ccc(-c3cccc(Cl)c3)o1)SCC(=O)N2 (centres undefined)
  5%	-16%
CCOc1ccc(-c2nc3c(c(SCC(=O)N4CCCCC4)n2)Cc2cc(C)ccc2O3)cc1
  -7%	-6%
Cc1cc(=O)oc2c(C)c(OCC(=O)NCCN(C)C)ccc12
  -12%	-19%
CCOc1ccc(NC(=O)CCc2c(C)nc3nc(-c4cc(OC)cc(OC)c4)nn3c2C)cc1
  -5%	-7%
c1ccc(Oc2nc(-c3ccccn3)nc3ccccc23)cc1
  0%	?
COc1ccc(N2CCN(C(=O)CN3C(=O)COc4ccc(S(=O)(=O)N5CCC(C)CC5)cc43)CC2)cc1
  -1%	9%
CC1(C)CC(=O)C2=C(C1)N(c1ccccc1F)C(=O)CC2c1ccc(Cl)cc1 (centres undefined)
  -23%	0%
Cc1ccccc1NC(=O)c1ccc2c(c1)NC(=O)CS2
  0%	10%

Single records, from the list above:
Results for COc1ccc(OCC(=O)Nc2cc(-c3ccccc3F)nn2-c2ccccc2)cc1 : StopGo FLuc: 19%; StopGo RLuc: -9%
Results for COc1ccc(CNc2nc(C)nc3sc4c(c23)CCC4)cc1OC : StopGo FLuc: 13%; StopGo RLuc: 15%

Individual results from the results shown:
StopGo RLuc with CC1CCN(Cc2cc(=O)oc3ccc(O)cc23)CC1 reads 12%
StopGo RLuc with COc1ccc(CNc2nc(C)nc3sc4c(c23)CCC4)cc1OC reads 15%

(further entries)
Order of results – StopGo FLuc	StopGo RLuc
COc1cc(C2CC(=O)Oc3c2c(=O)[nH]c2ccccc32)cc2c1OCO2 (centres undefined)
  -4%	5%
COc1ccc(C(=O)COC(=O)/C=C/c2c(Cl)nc3sccn23)cc1Br
  3%	-3%
O=C(O)C(c1c[nH]c2cc(F)ccc12)N1CCN(c2ccccc2)CC1 (centres undefined)
  -14%	-12%
COc1ccc2c(C)c(CC(=O)N3CCCC3)c(=O)oc2c1OC
  3%	-5%
COc1ccccc1NC(=O)c1c(NC(=O)c2ccccc2Cl)sc2c1CCC2
  2%	-10%
CNC(=O)CCn1nc(-c2ccc(Cl)cc2)c2ccccc2c1=O
  14%	1%
COC(=O)c1ccccc1SCC(=O)C12CC3CC(CC(C3)C1)C2
  20%	86%[activator]
COc1ccc(NC(=O)CN2C(=O)C(C)(C)c3cc(S(=O)(=O)N4CCCCC4)ccc32)cc1Cl
  -5%	5%
COc1ccc(CNC(=O)CN2C(=O)CSc3ccc(S(=O)(=O)N4CCC(C)CC4)cc32)cc1
  -14%	24%
CC(NC(=O)COc1ccccc1C#N)C12CC3CC(CC(C3)C1)C2 (centres undefined)
  1%	54%[activator]
CC(C)(C)NC(=O)CNc1nc(-c2ccncc2)nc2ccccc12
  2%	-1%
CCCNC(=O)C1CCC(Cn2c(=O)c3sccc3n(CC(=O)Nc3ccccc3C)c2=O)CC1 (centres undefined)
  -3%	-2%
CC(C)c1ccc(S(=O)(=O)NCc2ccc3c(c2)CCN3C(=O)c2ccccc2)cc1
  -26%	22%
COc1ccc2oc(=O)c(C(=O)Nc3cccc(C(=O)O)c3)cc2c1
  -23%	-2%
CNC(=O)C1CCC(Cn2c(=O)c3sccc3n(CC(=O)N3CCCC(C)C3)c2=O)CC1 (centres undefined)
  -12%	-13%
COc1ccc(CNC(=O)c2nc(-c3ccc4cc[nH]c4c3)no2)cc1
  4%	35%[activator]
Cc1ccc(C(CC(=O)O)NC(=O)C2CC=CCC2)cc1 (centres undefined)
  -6%	2%
Cc1ccc(NC(=O)c2c[nH]c3ccccc23)cc1I
  193%[activator]	-1%
CCOC(=O)c1cc2c(=O)n3ccccc3nc2n(Cc2ccco2)c1=NC(=O)c1ccccc1Br
  25%	78%[activator]
N#Cc1ccc(CN2CCC(c3c[nH]c4ccccc34)CC2)cc1
  3%	-9%
O=Cc1cccn1-c1cccc(Cl)c1Cl
  13%	2%
CCCCn1c(N)c(N(C)C(=O)C2Cc3ccccc3C(=O)O2)c(=O)[nH]c1=O (centres undefined)
  -4%	-11%
CCN(CC)S(=O)(=O)c1ccc(C)c(NS(=O)(=O)c2cccc(C#N)c2)c1
  -12%	125%[activator]
CCC(Oc1cccc(Cl)c1)C(=O)O (centres undefined)
  33%[activator]	17%
